Source: PubChem BioAssay
YopH inh = YopH tyrosine phosphatase inhibitors, primary screen, biochemical, fluorescence Ex485/Em525; YopH tyrosine phosphatase [Yersinia enterocolitica]; inhibition, %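 (about 10 µM by stock and volumes)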; 140,000 tested, 0.16% active; AID 898, 2007;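 active means inhibition of 50% or more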;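 further: controls were vehicle for no effect and minimum signal wells for full effect; inactives centre near -20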
Mtb betalactam = beta-lactam sensitization of Mtb H37Rv, H37Rv | M. tuberculosis H37Rv growth with meropenem, percent inhibition; hits of this screen are not shown here | inhibition, % at 25 µM | 330,000 tested, 0.27% active | AID 434955, 2010;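 active means about 74% or more and at least 40 points above the plate without the antibiotic, then above 30% in a dose series; inconclusive means first-round hits that could not be retested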;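 further: growth measured after seven days incubation then overnight dye step; 0% = bacteria only wells and 100% = bacteria with antibiotic; twin plates without the antibiotic show which effects depend on it; some results filed as inactive read as strong as hits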
Mtb growth = M. tuberculosis H37Rv growth inhibitors, H37Rv strain (AID 1626) | M. tuberculosis H37Rv growth inhibition; higher % means a stronger effect | inhibition, % at 10 µM, or IC50 in µM where a hit was titrated | 220,000 tested, 0.95% active;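 active means confirmed in a dose series; inconclusive means inhibition above 80% but not taken into the dose series; inactive means below 80% or under 30% at every dose of the series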;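 further: bacteria incubated seven days before Alamar blue readout; 0% = bacteria only wells and 100% = bacteria with antibiotic wells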
RecA splice inh = Mtb RecA intein splicing inhibitors, primary screen, biochemical, fluorescence, HTS; Protein RecA (Mycobacterium tuberculosis (strain ATCC 25618 / H37Rv)), P9WHJ3; cell-free RecA intein splicing; inhibition, %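 (about 9 µM by stock and volumes)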; 290,000 tested, 0.75% active; AID 2221, 2009; in the data active means inhibition above about 30%; inconclusive means no clear call, values can overlap the other calls;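 further: 0% = vehicle wells and 100% = reference inhibitor control wells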
Target sequence (P9WHJ3 whole entry, looked up, canonical isoform): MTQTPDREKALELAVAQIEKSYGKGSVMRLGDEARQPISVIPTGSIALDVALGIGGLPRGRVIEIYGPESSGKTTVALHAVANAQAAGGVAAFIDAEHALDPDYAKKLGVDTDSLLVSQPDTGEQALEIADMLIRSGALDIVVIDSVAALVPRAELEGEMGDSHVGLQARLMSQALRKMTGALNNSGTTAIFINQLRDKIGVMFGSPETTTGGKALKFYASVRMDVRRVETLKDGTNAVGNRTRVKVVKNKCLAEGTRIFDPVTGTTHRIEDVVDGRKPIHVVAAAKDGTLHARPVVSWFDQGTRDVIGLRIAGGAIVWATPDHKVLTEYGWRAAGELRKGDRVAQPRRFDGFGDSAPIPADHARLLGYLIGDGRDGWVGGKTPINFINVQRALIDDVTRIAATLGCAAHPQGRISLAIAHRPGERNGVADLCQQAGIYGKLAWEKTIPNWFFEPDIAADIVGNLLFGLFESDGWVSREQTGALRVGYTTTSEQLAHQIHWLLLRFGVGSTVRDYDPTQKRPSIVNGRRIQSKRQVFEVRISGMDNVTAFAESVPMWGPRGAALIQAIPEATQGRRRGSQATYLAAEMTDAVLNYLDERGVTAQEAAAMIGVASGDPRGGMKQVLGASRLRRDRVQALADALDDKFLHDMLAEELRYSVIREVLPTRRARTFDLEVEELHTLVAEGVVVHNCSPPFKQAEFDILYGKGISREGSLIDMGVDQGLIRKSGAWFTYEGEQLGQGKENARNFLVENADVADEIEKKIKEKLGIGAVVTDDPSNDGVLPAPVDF
Arbovirus anti = antivirals against arbovirus infection, primary screen, cell-based, full library, 10K replicate subset; arbovirus infection cell-based antiviral screen; inhibition, % at 10 µM; 200,000 tested, 0.37% active;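 active means inhibition from about 30%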;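 further: bluetongue infection of BSR cells; cell survival read as ATP light after 72 h; 0% = infected wells without compound and 100% = uninfected wells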
Arbovirus anti repeat = also measured in Arbovirus anti; calls as there; inhibition, %; measured here: 10K subset replicate screen; many hits read low in the repeat;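 first of two repeat runs on a subset; 0% = infected and 100% = uninfected wells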
* marks the source's active call; other numbers are inactive results; ? = inconclusive; / = no result given; & = joins results of further samples.

SMILES	YopH inh	Mtb betalactam	Mtb growth	RecA splice inh	Arbovirus anti	others
Cc1cc(OCC(=O)NCC2CCC(C(=O)O)CC2)c2c(C)c(C)c(=O)oc2c1 (stereo unspecified)	/	-2	/	4.9	/
C/C(CC(=O)Nc1cccc2c1CCCC2)=N\NC=O	/	1	-4%	21	-3
COc1ccc(C(C)NC(=O)c2cccc([N+](=O)[O-])c2)cc1OC (stereo unspecified)	-24	5	-10%	0.1	-1
CN(C)N1C(N)=C(C#N)C(c2ccc3c(c2)OCO3)C2=C1CC(C)(C)CC2=O (stereo unspecified)	/	6	/	2.6	/
CSc1nc2ccc(NC(=O)C3CC(=O)N(Cc4ccco4)C3)cc2s1 (stereo unspecified)	-9	-5	7%	2.4	6	Arbovirus anti repeat=2
O=C(NCc1ccccc1)C1CCN(S(=O)(=O)c2cccc3cccnc23)CC1	-33	-3	10%	/	-1	Arbovirus anti repeat=2
Cc1ccc(C(c2sc3nc(C)nn3c2O)N2CCN(C(=O)c3ccco3)CC2)cc1 (stereo unspecified)	10	-3	-11%	1.1	2
CCN1C(=O)/C(=C/C2=Cc3ccccc3OC2C)SC1=S (stereo unspecified)	/	-12	-2%	1.9	/
CCOC(=O)CSc1ncnc2c1nnn2-c1ccc(F)cc1	-2	100	?	24	-1
COc1ccc(CN2C(=S)NC(C)(C)CC2(C)O)cc1 (stereo unspecified)	-18	-2	-5%	0.1	4
COCc1cc(=O)n2[nH]c(C(F)(F)F)nc2n1	-13	-13	-1%	-4.1	6
CC(C)OCCCNC(=O)c1c(N)n(/N=C/c2cccs2)c2nc3ccccc3nc12	-27	9	/	-26	-5
COc1cccc(NC(=O)C(=O)NCC2CCCN2S(=O)(=O)c2ccccc2)c1 (stereo unspecified)	/	-12	/	2.7	/
CC[C@@]12C(=O)N(c3cccc(Cl)c3)C(=O)N1[C@H](c1cccc(C)c1)[C@@H]1C(=O)N(Cc3ccccc3)C(=O)[C@@H]12	/	-9	/	4.8	/
CCOC(=O)c1cccnc1SCc1cc(=O)n2ccccc2n1	-47	/	6%	-0.5	5
O=C(c1ccc([N+](=O)[O-])cc1)N(Cc1ccc(Br)cc1)N1C(=O)CCCC1=O	-13	-4	-2%	-1.0	2
Cc1ccc2nc(-c3ccccc3)c(-c3ccccc3)nc2c1	/	8	1%	11	-2
CC(NC(=O)COc1cccnc1[N+](=O)[O-])c1ccc(Cl)cc1 (stereo unspecified)	/	1	/	-11	/
CCCCn1nnnc1SCC(=O)c1ccc(C)c(C)c1	-18	-5	-11%	-0.7	-4
Cc1cc(C)c(S(=O)(=O)N2CCCC(C(=O)NC3CC3)C2)c(C)c1 (stereo unspecified)	/	6	/	2.1	/
CC(C(=O)NCc1cccs1)n1cccc1 (stereo unspecified)	-1	-5	0%	-1.8	-4
Cc1cc(Br)c2c(c1)=C(c1sc(N3CCCCCC3)nc1O)C(=O)N=2	-23	/	-4%	-0.7	0
CSc1ccccc1C(=O)NCc1cccnc1	/	-9	5%	-2.1	-1
CC(C)c1ccc(OCC(=O)N2CCN(C)CC2)c(Br)c1	-11	6	-2%	1.0	-10

Reprinted at random: four entries already listed, in no set order.
SMILES	YopH inh	Mtb betalactam	Mtb growth	RecA splice inh	Arbovirus anti	others
Cc1cc(Br)c2c(c1)=C(c1sc(N3CCCCCC3)nc1O)C(=O)N=2	-23	/	-4%	-0.7	0
CC(C)c1ccc(OCC(=O)N2CCN(C)CC2)c(Br)c1	-11	6	-2%	1.0	-10
COc1cccc(NC(=O)C(=O)NCC2CCCN2S(=O)(=O)c2ccccc2)c1 (stereo unspecified)	/	-12	/	2.7	/
Cc1ccc2nc(-c3ccccc3)c(-c3ccccc3)nc2c1	/	8	1%	11	-2

The main list resumes; the 4 compounds before the break are reprinted first.
SMILES	YopH inh	Mtb betalactam	Mtb growth	RecA splice inh	Arbovirus anti	others
CC(C(=O)NCc1cccs1)n1cccc1 (stereo unspecified)	-1	-5	0%	-1.8	-4
Cc1cc(Br)c2c(c1)=C(c1sc(N3CCCCCC3)nc1O)C(=O)N=2	-23	/	-4%	-0.7	0
CSc1ccccc1C(=O)NCc1cccnc1	/	-9	5%	-2.1	-1
CC(C)c1ccc(OCC(=O)N2CCN(C)CC2)c(Br)c1	-11	6	-2%	1.0	-10
CCC1=C(OC(=O)N(CC)CC)N2C(=O)OC(=NCCc3c[nH]c4ccccc34)[C@]2(Cc2ccccc2)[C@H]2C1=CC[C@H]1C(=O)NC(=O)[C@H]12	/	99	41%	2.0	/
CSc1ccccc1NC(=O)CN(C)Cc1ccc(Br)cc1	-51	8	16%	16	10
COc1ccc(OCC(=O)N2CCN(Cc3c[nH]c4ccccc34)CC2)cc1	-33	/	-14%	2.0	21
COCCN1Cc2cccc(C(=O)NCc3ccccn3)c2C1=O	-2	-3	-3%	1.0	0	Arbovirus anti repeat=1
COc1ccccc1Nc1nc(N)nc(CSc2nccn2C)n1	/	-1	0%	0.1	1
CCC(OC(=O)c1ccco1)C(=O)NCc1ccc(OC)cc1 (stereo unspecified)	/	1	/	1.3	/
Cc1nc(SCC(=O)NC(=O)NCc2ccccc2)nc(C)c1C	-16	-6	-5%	1.0	4
CC(=O)OC1C2CCCC1C(N1CCCC1)CC2 (stereo unspecified)	-25&4	-14&3	-1%&3%	2.4&-0.9	2&7
COc1ccc(N2CCN(CCCNC(=O)C(=O)c3c(C)n(C)c4ccccc34)CC2)cc1	/	2	/	-1.7	/
Fc1cccc(CSc2nc3ncccc3[nH]2)c1	-22	3	-3%	0.4	-4
COc1ccnc2c1c(=O)n(Cc1ccc(Cl)cc1Cl)c(=O)n2C	/	-4	/	-2.3	/
CN(C)c1ccc(/C=N/NC(=O)c2cc(-c3ccc4c(c3)OCO4)n[nH]2)cc1	/	/	3%	4.2	/
CCOc1ccccc1NC(=O)CSc1ncnc2c1oc1ccccc12	-3	-11	2%	-1.0	-4
CCCOc1ccc(OCCOCCNCc2ccccc2)cc1	-15	-4	-1%	0.5	-26
COc1cccc(C(=O)N/N=C/c2cn[nH]c2-c2ccc(OC)cc2OC)c1	-9	24	9%	0.9	7
O=C(Cc1ccccc1[N+](=O)[O-])Nc1ccccc1C(=O)N1CCCC1	/	-10	-2%	1.0	6
C=CCOC(=O)C(=O)/C=C/c1ccc2c(c1)Cc1ccccc1-2	/	-2	12%	9.2	1
Cc1ccccc1NS(=O)(=O)c1cc(S(C)(=O)=O)ccc1Cl	-39	2	5%	0.5	6
CCOc1c(C(N)=O)cc([N+](=O)[O-])cc1[N+](=O)[O-]	-31	-1	-2%	/	10
CC1CCC(NC(=O)CN(C)S(=O)(=O)c2ccc3c(c2)CCC(=O)N3)CC1 (stereo unspecified)	/	4	/	-5.9	/
CSc1nnc([C@@H]2CCCN2C(=O)OC(C)(C)C)o1	/	-7	-3%	-0.5	-1
Cc1ccc(OCC(=O)N(Cc2ccccc2)C(C)C)c([N+](=O)[O-])n1	-37	-1	0%	0.0	-1
COc1cc2[nH]c(=O)n(CCCC(=O)NC3CCCCC3)c(=O)c2cc1OC	/	-9	/	-1.5	/
COc1ccc(CCNC(=S)NC(=O)c2ccc(Br)cc2)cc1OC	/	5	4%	0.1	-6

The final 2 entries of the part above come first, to join the parts:
SMILES	YopH inh	Mtb betalactam	Mtb growth	RecA splice inh	Arbovirus anti	others
COc1cc2[nH]c(=O)n(CCCC(=O)NC3CCCCC3)c(=O)c2cc1OC	/	-9	/	-1.5	/
COc1ccc(CCNC(=S)NC(=O)c2ccc(Br)cc2)cc1OC	/	5	4%	0.1	-6
O=C(NC(=S)N1CCN(c2ccccc2)CC1)c1c(F)cccc1F	/	3	/	-2.9	/
CC1=C/C(=N\NC(=O)c2ccc(O)cc2)CC1	-26	-7	-6%	-2.6	-5
O=C(NC(=S)Nc1ccc2oc(=O)ccc2c1)c1cccc(Cl)c1	/	2	/	-1.3	/
CC(C)(C)c1ccc(/C=C/C(=O)Nc2cccnc2)cc1	/	46	/	8.9	/
CC(C)(C)CC(=O)Nc1ccc(-c2nnc3n2CCCCC3)cc1	/	-2	/	0.8	/
CNc1oc(/C=C/c2cccc(OC)c2)nc1C#N	/	6	/	-82	/
Cc1cc(C)cc(OCc2ccc(C(=O)N3N=C(C(F)F)CC3(O)C(F)F)o2)c1 (stereo unspecified)	-27	-4	/	0.4	12
Cc1ccc2nc(SCC(=O)Nc3c(F)cccc3F)[nH]c2c1	/	-1	-4%	0.7	-3
CCOC(=O)c1c(C)[nH]c(C)c1C(=O)CSc1nc2ccccc2c(=O)n1-c1ccc(Cl)cc1	-7	6	16%	13	4
Fc1ccc(-c2nnn(Cc3ccc(F)cc3Cl)n2)cc1	/	3	/	2.8	/
c1ccc2nc(-c3ccncc3)ccc2c1	-37	-3	1%	-4.8	10
O=C(Nc1cccc(Cl)c1)c1cc2c(=O)n3ccccc3nc2s1	/	2	/	-7.1	/
CCCCc1ccc(NC(=O)C2CCCO2)cc1 (stereo unspecified)	20	99	1.7µM*	-4.7	-4	Arbovirus anti repeat=1
S=C1NCN(C2CCCCC2)CN1Cc1ccccc1	-10	2	5%	-1.3	6
Cc1ccc(SCC(=O)Nc2ccc(F)cc2[N+](=O)[O-])cc1C	-24	5	-1%	0.5	7
COc1ccccc1NC(=O)C1(C)Cc2ccccc2C(=O)O1 (stereo unspecified)	-20	13	-1%	-1.3	-3	Arbovirus anti repeat=0
CC1(C)N=C(N)N=C(N)N1c1ccc(Oc2ccc(Cl)cc2)c(Cl)c1	/	11	/	2.2	/
O=C(Cn1ccc2ccccc2c1=O)NCCC(=O)N1CCCCC1	/	2	/	1.5	/
CCCCC(=O)NC(c1ccccc1OC)c1ccc2cccnc2c1O (stereo unspecified)	/	-5	-2%	-1.8	/
COc1ccc(NC(=O)Cn2nnc(C(=O)NCc3ccc(C)cc3)c2N)cc1Cl	/	4	/	0.0	/
CN1C(=O)C(=O)N(CC(=O)N2CCc3ccccc32)C1=O	-20	13	-4%	-5.9	9
Cc1ccnc(N2CCC(C(=O)Nc3ccc4c(c3)CCC4)CC2)n1	-33	-5	-6%	-7.9	-5
CCc1ccc(OCC(O)CNC(C)(C)C)cc1 (stereo unspecified)	-15	-3	-5%	-0.5	7
Cc1occc1C(=O)N/N=C/c1c[nH]c2ccccc12	-18	20	0%	/	3
CC(C)(C)c1ccc(C(=O)N2CCCC2)s1	/	15	-2%	0.4	/
COc1ccc(/C=C/C(=O)c2cc(Br)ccc2OC(=O)c2ccco2)cc1OC	-3	23	14%	25	-31
CN(C)c1ccc(NC(=O)CCN2C(=O)c3cccc([N+](=O)[O-])c3C2=O)cc1	/	1	/	-4.9	/
CCC(C)NC(=O)CSC1=Nc2ccccc2C2=NC(CCC(=O)NCc3ccco3)C(=O)N12 (stereo unspecified)	15	5	2%	-0.9	8
Cc1ccnc(NC(=O)CCNS(=O)(=O)c2ccc(C)c(C)c2)c1	/	-4	/	1.4	/
O=C(CSc1nnc(-c2ccc(S(=O)(=O)N3CCCC3)cc2)o1)NCC1CCCO1 (stereo unspecified)	/	-3	-9%	-0.9	3
O=C1[C@@H]2CSCN2C(=O)CN1CCc1cccc(F)c1	-45	-20	-6%	0.8	-2
O=C(CSc1nnc(-c2ccncc2)o1)c1cccc([N+](=O)[O-])c1	/	/	-6%	1.3	-1
Cc1cc(C)cc(NC(=S)Nc2ccccn2)c1	-17	84	68%	-4.0	3
COCCCn1c(SCC(=O)Nc2nc3ccccc3s2)nnc1-c1ccoc1C	-34	-8	4%	3.3	-4
CNc1cc(C)nc(-n2nc(C)cc2C)n1	-44	93	13%	3.6	1
COc1cccc(-c2nnc(NC(=O)c3ccc4ncsc4c3)o2)c1	-11	95	?	1.0	-38
Cc1cc(OCc2cc(C(=O)NCCN3CCCCC3CO)no2)cc(C)c1Cl (stereo unspecified)	/	-14	/	1.5	/
Fc1ccc(CSc2nncn2NCc2ccccc2)cc1	-11	8	-9%	1.3	-4
CC(C)CNC(=O)c1cc(-c2ccc(Cl)c(Cl)c2)on1	-33	-2	-1%	-0.6	4
COc1ccc(/C=C/C(=O)Nc2ccc3c(c2)CCC3)cc1OC	-30	-13	60%	3.2	9
Cc1cc(C(=O)N/N=C/c2ccc(N3CCOCC3)cc2)c(C)o1	/	4	3%	11	-7
CC1CN(O)C2CCc3nonc3C12O (stereo unspecified)	-36	-16	3%	-3.4	0
CC(C)[C@H](NC(=O)N1c2ccccc2NC(=O)[C@@H]1C(C)C)C(=O)N1CCC(C(=O)O)CC1	/	-8	/	-2.2	/

Some of the compounds tested (hit frequency here may not be typical).
